Mtb growth: Mycobacterium tuberculosis H37Rv growth inhibition, cell based, confirmatory dose response (AID 1949) | most inactive calls were filed without a number and no value below 0 was filed | inhibition, % at 10 µg/mL; hits with a dose series show IC50 in µg/mL | 100,000 compounds, 1.6% hits;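 active = confirmed in a dose series; inconclusive = about 50% or more but not retested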;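 also: bacteria grown 7 days with compound before Alamar blue readout; 0% = untreated bacteria and 100% = reference antibiotic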
The depositor's hits bear a star; i = inactive; ? = inconclusive. The list is partial; count on the stated rates, not on these rows.

#	smiles	Mtb growth
1	CN(C)S(=O)(=O)N1CCN(C(=O)c2ccccc2Cl)CC1	i
2	Cc1cccc(NC(=O)c2c(F)c(F)c(F)c(F)c2F)n1	9.8%
3	O=S(=O)(Nc1ccccc1-c1ccccc1)c1cccs1	i
4	CN1CCN(C(=O)NCC23CC4CC(C2)CC(CNC(=O)N2CCN(C)CC2)(C4)C3)CC1	1.4%
5	O=C(O)C1C2C=CC(C2)C1C(=O)NCC1CCCO1 (centres undefined)	i
6	CC1(C)CC(NC(=S)NCc2ccco2)CC(C)(C)N1	i
7	O=C(Nn1cnnc1)c1sc2cccc(F)c2c1Cl	i
8	CCNC(=S)Nc1cccc(Cl)c1C	i
9	CCOc1ccc2nc(SCC(=O)Nc3c(C)cccc3C)[nH]c2c1	i
10	COC(=O)c1cccc(NC(=O)/C(=C\c2ccccc2)NC(=O)c2ccco2)c1	i
11	COc1ccc(Cl)cc1NC(=O)CSc1nnc(COc2cccc(C)c2)n1C	i
12	C=CCSc1nc2cc(OC)ccc2n1Cc1ccccc1	0.1%
13	COc1ccc(C(=O)c2ccc(N3CCN(C)CC3)c(F)c2)cc1Br	i
14	O=C(Nc1ccc2c(c1)OCCO2)c1sc2cc(Cl)ccc2c1Cl	i
15	CC(=O)Nc1ncc(Cc2cccc(C(F)(F)F)c2)s1	i
16	COc1ccc(Cl)cc1NC(=O)c1cc2cc([N+](=O)[O-])ccc2oc1=O	i
17	COc1ccc2oc(=O)c(-c3csc(Nc4ccc(C(C)=O)cc4)n3)cc2c1	i
18	Cc1ccc(/C=C/C(=O)O)cc1S(=O)(=O)N1CCOCC1	i
19	COc1ccc(OC(C)C(=O)N2CCC(Cc3ccccc3)CC2)cc1 (centres undefined)	3.5%
20	CCN(c1ccccc1)S(=O)(=O)c1ccc(NC(=O)COc2ccccc2)cc1	i
21	Cc1c(CC(=O)O)c(=O)oc2cc(OCC(=O)O)ccc12	i
22	Cc1ccc2oc(-c3cc(NC(=S)NC(=O)c4ccc(F)cc4Cl)ccc3O)nc2c1	i
23	CC(=O)c1cccc(Nc2cc(C)nc3c2ccc2ccccc23)c1	3.1µg/mL*
24	CCn1c(CCNC(=O)c2cccs2)nnc1SCc1ccc(Cl)c(Cl)c1	i
25	COc1ccc(C2CC(=O)c3cnc(Nc4ccccc4OC)nc3C2)cc1 (centres undefined)	35.5%
26	Cc1cccnc1NC(=S)NCCc1ccccc1	i
27	COC(=O)Cc1ccc(NC(=O)c2ccccc2Cl)cc1	i
28	CCn1c(SCC(=O)Nc2cccc3ccccc23)nnc1C(C)NC(=O)c1ccccc1Br (centres undefined)	i
29	CCn1c(-c2nonc2NC(=O)c2ccccc2)nc2ccccc21	i
30	S=C(NCc1ccco1)Nc1ccn(C23CC4CC(CC(C4)C2)C3)n1	17.6%
31	COC(=O)c1sc(NC(=O)c2ccncc2)nc1C	i
32	Cc1ccc(NC(=O)C2CC3CCC2C3)cc1Cl (centres undefined)	?
33	CC(C)CNS(=O)(=O)c1ccc(CCC(=O)N2CCN(Cc3ccccc3)CC2)cc1	i
34	COc1ccc(C(=O)NC(=S)NCc2cccnc2)cc1OC	i
35	O=C(C1CCC1)N1CCN(S(=O)(=O)c2ccccc2)CC1	i
36	CC1(C)CC(CC(=O)Nc2nccs2)(c2ccccc2)CCO1 (centres undefined)	i

In the list so far, these have a Cl atom.
#	smiles	Mtb growth
1	CN(C)S(=O)(=O)N1CCN(C(=O)c2ccccc2Cl)CC1	i
7	O=C(Nn1cnnc1)c1sc2cccc(F)c2c1Cl	i
8	CCNC(=S)Nc1cccc(Cl)c1C	i
11	COc1ccc(Cl)cc1NC(=O)CSc1nnc(COc2cccc(C)c2)n1C	i
14	O=C(Nc1ccc2c(c1)OCCO2)c1sc2cc(Cl)ccc2c1Cl	i
16	COc1ccc(Cl)cc1NC(=O)c1cc2cc([N+](=O)[O-])ccc2oc1=O	i
22	Cc1ccc2oc(-c3cc(NC(=S)NC(=O)c4ccc(F)cc4Cl)ccc3O)nc2c1	i
24	CCn1c(CCNC(=O)c2cccs2)nnc1SCc1ccc(Cl)c(Cl)c1	i
27	COC(=O)Cc1ccc(NC(=O)c2ccccc2Cl)cc1	i
32	Cc1ccc(NC(=O)C2CC3CCC2C3)cc1Cl (centres undefined)	?

Quoted at random: 6 entries already listed
#	smiles	Mtb growth
29	CCn1c(-c2nonc2NC(=O)c2ccccc2)nc2ccccc21	i
25	COc1ccc(C2CC(=O)c3cnc(Nc4ccccc4OC)nc3C2)cc1 (centres undefined)	35.5%
7	O=C(Nn1cnnc1)c1sc2cccc(F)c2c1Cl	i
18	Cc1ccc(/C=C/C(=O)O)cc1S(=O)(=O)N1CCOCC1	i
26	Cc1cccnc1NC(=S)NCCc1ccccc1	i
31	COC(=O)c1sc(NC(=O)c2ccncc2)nc1C	i

Following part
#	smiles	Mtb growth
37	O=S(=O)(Nc1ccc2c(c1)OCCO2)c1cccs1	i
38	Cc1ccc(NC(=O)C2CCN(S(=O)(=O)c3ccc(Cl)cc3)CC2)c(C)c1	i
39	CCCCc1ccc(N2C(=O)CS/C2=C(/C#N)S(=O)(=O)c2ccccc2)cc1	i
40	CC(C)c1ccc(/C=C(\C#N)c2nc3ccccc3n2C)cc1	17.0%
41	CCNc1nc(Nc2nc(C)c(C(=O)OCC)s2)nc(NC(C)C)n1	i
42	CCc1ccccc1NC(=O)c1cccc(Br)c1	i
43	CCCCOc1ccccc1NC(=O)c1cc(OCC)c(OCC)c(OCC)c1	?
44	CC1CN(c2ncnc3scc(-c4ccc(Cl)cc4)c23)CC(C)O1 (centres undefined)	8.0%
45	COc1cc(C2CC(=O)C3=C(C2)Nc2ccccc2NC3c2ccccc2F)cc(OC)c1OC (centres undefined)	i
46	COCc1nn2c(N)c(C#N)cnc2c1-c1ccccc1	i
47	COc1ccccc1CC(=O)Nc1cccc2c1CCCC2	1.5%
48	C=C(C)Cn1c(SCC(=O)N2CCc3ccccc32)nc2sc3c(c2c1=O)CCC3	i
49	O=C(CSc1nnnn1-c1cccc(Cl)c1)Nc1cccc(C(F)(F)F)c1	i
50	CN(Cc1ccccc1)c1oc(COc2ccc(Br)cc2)nc1C#N	i
51	COCc1cc(C)nc2sc(C(=O)OC(C)C)c(N)c12	i
52	Cc1cc(C)cc(C(=O)NC(=S)Nc2ccc3[nH]c(=O)[nH]c3c2)c1	i
53	COc1cc(Cl)c(S(=O)(=O)N2CCN(c3ccc(Cl)c(Cl)c3)CC2)cc1Cl	6.3%
54	Cc1c(CC(=O)O)c(=O)oc2c(C)c(OCc3ccccc3Br)ccc12	i
55	Cc1ccc(OCCOc2cccc3ccc(C)nc23)c([N+](=O)[O-])c1	i
56	CC1(C)CC(=O)C2=C(C1)NC1=C(C(=O)c3ccccc31)C2c1cccnc1 (centres undefined)	i
57	O=C(CC12CC3CC(CC(C3)C1)C2)NCc1ccco1	i
58	O=C(Nc1ccc(N2CCN(Cc3ccccc3)CC2)cc1)c1ccco1	i
59	Cc1ccccc1C(=O)Nc1cccc(NC(=O)CC(C)C)c1	i
60	CCOc1ccc(NC(=O)CSc2nnc(CNC(=O)c3ccccc3Cl)n2C)cc1	i
61	Cc1ccc(C(C)C)c(OCCn2cc(C#N)c3ccccc32)c1	28.9%
62	Cc1ccc(N2CCN(S(=O)(=O)c3ccc(C)c(C)c3C)CC2)cc1Cl	4.9%
63	Cc1ccc(S(=O)(=O)N2CCc3ccccc32)cc1[N+](=O)[O-]	i
64	COC(=O)c1cc(NC(=O)CN(c2cc(C)cc(C)c2)S(C)(=O)=O)ccc1Cl	i
65	C=CCNC(=S)Nc1sc2c(c1C(=O)OCC)CC(C)(C)SC2	1.4%
66	O=C(Nc1ccc(Cl)c(C(F)(F)F)c1)C1CCN(C(=O)c2ccc(F)cc2)CC1	i
67	CCCCOc1ccccc1NC(=O)COc1cccc(C)c1	27.4%
68	COc1ccc(C(C)NC(=O)c2ccc(OCC(C)C)cc2)cc1 (centres undefined)	i
69	O=C(N1CCN(c2ccccc2Cl)CC1)C12CC3CC(CC(C3)C1)C2	i
70	CN1CCN(C(=O)c2ccccc2NC(=O)Nc2cccc(Cl)c2)CC1	0.8%
71	COc1cccc(OCCOCCN(C)CCO)c1	i
72	COc1ccccc1OCCOc1ccc(C)cc1C=O	4.6%

Continuation.
cpd	molecule	Mtb growth
73	CC1(C)NC(=O)N(CCOCCOc2ccccc2-c2ccccc2)C1=O	i
74	CCOC(=O)C1=C(c2ccccc2)NC(=S)NC1c1ccc(OCC)c(Br)c1 (centres undefined)	i
75	O=C(NCc1ccccn1)c1cc2n(n1)C(C(F)(F)F)CC(c1ccccc1)N2 (centres undefined)	0.7%
76	CCN1CCN(S(=O)(=O)c2cc(OC)ccc2OC)CC1	i
77	Clc1ccc(OCCOCCn2ccnc2)c(Br)c1	5.0%
78	CCCC(=O)Nc1ccccc1NC(=O)c1ccc(I)cc1	i
79	Cc1scc(C(=O)N2CCC3(CC2)OCCO3)c1-c1ccccc1	i
80	COc1ccc(C(C)NC(=O)c2ccco2)cc1OC (centres undefined)	i
81	O=C1C2C3CC(c4ccccc4)C(C3)C2C(=O)N1Cc1ccccc1 (centres undefined)	i
82	OCCNc1ncnc2c1c(-c1ccccc1)c(-c1ccccc1)n2Cc1ccco1	3.3%
83	Cc1ccc(S(=O)(=O)CC(=O)c2ccccc2Cl)cc1	i
84	CSc1nnc(-c2cccs2)n1C	i
85	COc1cc([N+](=O)[O-])ccc1NC(=O)CCCOc1ccc(C(C)(C)C)cc1	i
86	O=C(CCC1CCCCC1)Nc1ccc(Nc2ccccc2)cc1	i
87	O=C(Nc1nnc(SCC(=O)N2CCc3ccccc32)s1)c1ccccc1F	3.2%
88	CC(C)(C)C(=O)Nc1ccccc1C(=O)Nc1cc(Cl)ccc1Cl	i
89	CCOC(=O)c1c(NC(=O)CCc2ccc(CC)o2)sc(C)c1C	i
90	COc1ccccc1CNC(=O)Nc1ccc(Br)cc1Cl	i
91	CCOCCCNC(=O)c1ccccc1SCC	i
92	Cc1cc(OCCCC(=O)O)cc(C)c1Cl	i
93	COC(=O)CC1CC(=O)C2C(=O)c3c(OC)ccc(Br)c3C2C1 (centres undefined)	0.3%
94	O=C(O)CN(C1CCCCC1)S(=O)(=O)c1ccc(F)cc1	i
95	CCc1cccc2ccc(S(=O)(=O)N3CCCCC3)c(CC)c12	i
96	O=C(C1CCCN(C2CCN(Cc3ccccc3)CC2)C1)N1CCN(c2ccccc2)CC1 (centres undefined)	0.6%
97	Cc1ccc(OC(=O)C(CCS(C)(=O)=O)N2C(=O)c3cc(Cl)c(Cl)cc3C2=O)c(-n2nc3ccccc3n2)c1 (centres undefined)	i
98	CCOc1cccc(NC(=O)CC#N)c1	3.6%
99	CCOC(=O)c1c(NC(=O)CSc2ccccc2)sc(C)c1-c1ccc(OC)cc1	5.8%
100	CCc1ccccc1N1C(=O)CC(SCC(=O)Nc2ccc(Br)cc2)C1=O (centres undefined)	i
101	O=C(CSc1nnc(CCCO)n1-c1ccccc1)NC12CC3CC(CC(C3)C1)C2	i
102	COc1ccc(-c2csc(NC(=O)Cn3c(=S)nc4ccccn43)n2)cc1	i
103	Cc1ccc(NC(=O)C2OCCc3ccccc32)cc1C (centres undefined)	i
104	O=C(c1ncn[nH]1)N(Cc1cc2ccccc2[nH]c1=O)c1ccccc1	i
105	COc1ccc(Br)cc1CON1C(=O)c2ccccc2C1=O	i
106	Cn1c(Cc2ccccc2)nnc1SCc1ccc([N+](=O)[O-])cc1	i
107	CCOc1ccc(OCCCN2CC(C)CC(C)C2)cc1 (centres undefined)	i
108	CCc1ccc(OCC(=O)O/N=C(\N)Cc2ccc([N+](=O)[O-])cc2)c(Br)c1	i
109	COC(=O)C1=C(C)NC(=O)C1(Nc1nccs1)C(F)(F)F (centres undefined)	i
110	N/C(=N\OC(=O)COc1ccc2ccccc2c1Br)c1cccnc1	3.0%
111	COc1ccc(NC(=O)c2cc(SC)ccc2Cl)cc1	i
112	C=C(C)Cn1c(SC(C)C)nc2sc3c(c2c1=O)CCC3	6.1%
113	C=CCn1c2ccccc2n2nc(CCC(=O)O)c(=O)nc12	i
114	Clc1ccc(-c2csc3ncnc(N4CCN(c5ccccn5)CC4)c23)cc1	33.0%
115	O=C(Nc1ccc(Cl)cc1)Nc1ccc(N2CCOCC2)cc1	1.4%
116	COc1cc(/C=C2/C(=O)NC(=O)N(c3ccc(F)cc3)C2=O)ccc1OC(=O)c1cccs1	10.4%
117	Cc1cccc(CC(CC(=O)O)C(=O)O)c1 (centres undefined)	0.2%
118	CCOc1ccc(N(CC(=O)Nc2cccc(SC)c2)S(C)(=O)=O)cc1	i
119	O=C(CCSc1nnc(Cc2ccccc2)n1-c1ccccc1)Nc1ccccc1	i
120	COc1ccc(/C=C2/SC(N3CCN(C)CC3)=NC2=O)c(OC)c1	i
121	COc1ccc(C(=O)NCCSCc2ccccc2C)cc1	2.0%
122	CCC(C)c1ccc(OCCCNC(C)(C)C)cc1 (centres undefined)	i
123	O=C(NCc1ccc2c(c1)OCO2)c1ccc(CN2CCc3ccccc3C2)cc1	i
124	COC(=O)Nc1nnc(COc2cccc(C)c2)s1	i
125	O=C(Nc1ccccc1Br)c1c(NC(=O)c2cccc3ccccc23)sc2c1CCC2	i
126	COc1cc(S(=O)(=O)n2cnc3ccccc32)c(OC)cc1Cl	i
127	Cc1ccc2cccc(SCC(=O)N3CCOCC3)c2n1	1.6%
128	CCOc1cc(C2C(C#N)=C(N)Oc3n[nH]c(C(C)(C)C)c32)ccc1OC(=O)c1c(F)cccc1F (centres undefined)	i

(further entries)
cpd	molecule	Mtb growth
129	CCOC(=O)COn1c(=O)c(-c2ccc(F)cc2)[n+]([O-])c2ccccc21	i
130	Cn1c(Cc2ccccc2)nnc1SCC(=O)Nc1ccccc1N1CCOCC1	i
131	C=CCn1c2nc3ccccc3nc2c2cccc(C)c21	10.6%
132	CCOC(=O)C1CCN(C(=S)Nc2ccc3nsnc3c2)CC1	i
133	COc1ccc(Cc2nnc(NS(=O)(=O)c3ccc(NC(C)=O)cc3)s2)cc1	i
134	Cc1c(C(=O)Oc2ccc(C=O)cc2)oc2ccccc12	i
135	Cn1c(=O)c2ccccc2n(Cc2ccccc2F)c1=O	1.7%
136	Cc1cc(C)nc(NC(=O)C(c2ccccc2)c2ccccc2)c1	i
137	O=C(COc1ccccc1Cl)Nc1ccc(S(=O)(=O)N2CCCC2)cc1	i
138	Cc1ccc(OCc2nnc(NC(=O)Cc3ccccc3)s2)cc1	i
139	CCOC(=O)c1ccc(NC(=O)C2C3CCC(C3=C(C)C)C2C(=O)O)cc1 (centres undefined)	i

Screening data as filed in PubChem.
